Sfp PPTase inh – qHTS Assay for Inhibitors of Bacillus subtilis Sfp phosphopantetheinyl transferase (PPTase). 4'-phosphopantetheinyl transferase ffp (Bacillus subtilis), Q9F4F7. Biochemical Sfp PPTase activity, qHTS. Potency, µM, for inactives: max response, negative = inhibition, most hits filed as inhibitors. 3.5% of 310,000 active. AID 1490, 2009; active = well fitted inhibition curve with a large enough effect; inconclusive = small, poorly fitted or top-dose-only effect, or another doubt; inactive = no such curve, though single readings can be large or run the other way;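 also: the enzyme is Sfp with the accession as filed and its product quenches rhodamine fluorescence; potency is read from the fitted curve at half-maximal effect; 0% = enzyme reaction without inhibitor and -100% = no enzyme wells; top concentration of the series not given in the record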
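After 15 min at room temperature with compound, 15 nM Sfp received 5 uM rhodamine-CoA plus 12.5 uM BHQ-2-ybbR (50 mM Hepes pH 7.6, 10 mM MgCl2). Rate came from the fluorescence difference over 30 min, ex 525/em 598 nm.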
CtBP-E1A blk – qHTS Assay for Inhibitors of the CtBP/E1A Interaction; AlphaScreen GST-E1A/His-CtBP binding, 1536-well; active compounds read low; control for the full effect not named in the record; activity change, % (test concentration not listed); 0.49% of 340,000 active; AID 651724, 2012; in the data active means activity change below about -65%; inconclusive means about -30% to -65%; inactive means above about -30%; also: % is scaled to controls: 0 for no effect and ±100 for the full control effect
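In 5 uL wells, 23 nL compound meets equimolar GST-E1A and His-CtBP (5X stock 125 nM each) for 2 h, 37 °C. Beads (5X, 50 ug/mL) then 1 h, 37 °C, dark.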
gsp antag – qHTS for Antagonists of gsp, the Etiologic Mutation Responsible for Fibrous Dysplasia/McCune-Albright Syndrome: qHTS | gsp-mutant cells, cAMP HTRF, 30 min; control for the full effect not named in the record | Potency, µM (series often up to 76.9 µM), without a hit: at the highest dose activity change, negative = inhibition, hits mostly inhibitors | 0.4% of 340,000 active; active = falling curve of any shape with a large fitted effect; inconclusive = falling curve, mostly with a smaller effect; inactive = flat or rising curve; cell line not stated here;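 also: intracellular cAMP measured with PDE inhibitor Ro 20-1724 present during compound exposure; potency is read from the fitted curve at half-maximal effect; % is scaled to controls: 0 for no effect and ±100 for the full control effect; nearly all actives have a fitted effect of over 65% in size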
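G418-selected cells were plated in DMEM/10% FBS for 16-24 h at 37C, then treated with compounds plus the PDE inhibitor […] (300 uM solution added) for 30 min at 37C. Intracellular cAMP was measured by HTRF after 30 min lysis at room temperature.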
Menin MLL FP FL – qHTS Assay for Inhibitors Targeting the Menin-MLL Interaction in MLL Related Leukemias: Competition With Fluorescein Labeled MLL-derived Peptide | Fluorescence polarization, fluorescein-MLL peptide displacement from menin | FP activity change, % at 61.4 µM | 290,000 tested, under 10 active | AID 1766, 2009; inconclusive = falling polarisation curve, or a change in total fluorescence; inactive = total fluorescence flat and polarisation flat or rising; no compound was filed as active; the % refers to the polarisation; negative = inhibition;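 also: % of control where 0% means no effect; inhibitors lower the polarisation; unlabelled MLL peptide was the positive control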
gsp agonist – qHTS for Agonist of gsp, the Etiologic Mutation Responsible for Fibrous Dysplasia/McCune-Albright Syndrome: qHTS; 0.13% of 340,000 active; gsp mutant cells, cAMP HTRF, 30 min; control for the full effect not named in the record; Potency, µM (doses to about 76.9 µM), without a hit: top-dose activation (cAMP increase), most hits filed as activators; active = well fitted activation curve with a large enough effect; inconclusive = small, poorly fitted or top-dose-only effect, or another doubt; inactive = no such curve, though single readings can be large or run the other way; cell line not stated here;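 also: phosphodiesterase inhibitor Ro 20-1724 added with compounds to block cAMP breakdown; potency is read from the fitted curve at half-maximal effect; nearly all actives have a fitted effect of over 60% in size; about a fifth of the inactives were tested at one dose only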
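Cells in DMEM/10% FBS with G418 were pretreated with compounds in DMSO plus […] (300 uM stock) for 30 min at 37C. cAMP was measured by HTRF (cAMP-d2 plus anti-cAMP antibody-K) after 30 min at room temperature.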
TRPV1 potentiator – HTS Assay for Compounds that Act as Potentiators of the Vanilloid Receptor 1 | 0.02% of 320,000 active | TRPV1-expressing cells, Fluo-8 calcium influx, capsaicin EC20 potentiation; host cell line not named in the record; control for the full effect not named in the record | Transient receptor potential cation channel subfamily V member 1 (Homo sapiens), Q8NER1 | potentiation, % at 8.33 µM; active means potentiation above 80%; inconclusive means 30% to 80%; inactive means below 30%; also: 0% is about no effect
Target sequence (Q8NER1 whole entry, looked up): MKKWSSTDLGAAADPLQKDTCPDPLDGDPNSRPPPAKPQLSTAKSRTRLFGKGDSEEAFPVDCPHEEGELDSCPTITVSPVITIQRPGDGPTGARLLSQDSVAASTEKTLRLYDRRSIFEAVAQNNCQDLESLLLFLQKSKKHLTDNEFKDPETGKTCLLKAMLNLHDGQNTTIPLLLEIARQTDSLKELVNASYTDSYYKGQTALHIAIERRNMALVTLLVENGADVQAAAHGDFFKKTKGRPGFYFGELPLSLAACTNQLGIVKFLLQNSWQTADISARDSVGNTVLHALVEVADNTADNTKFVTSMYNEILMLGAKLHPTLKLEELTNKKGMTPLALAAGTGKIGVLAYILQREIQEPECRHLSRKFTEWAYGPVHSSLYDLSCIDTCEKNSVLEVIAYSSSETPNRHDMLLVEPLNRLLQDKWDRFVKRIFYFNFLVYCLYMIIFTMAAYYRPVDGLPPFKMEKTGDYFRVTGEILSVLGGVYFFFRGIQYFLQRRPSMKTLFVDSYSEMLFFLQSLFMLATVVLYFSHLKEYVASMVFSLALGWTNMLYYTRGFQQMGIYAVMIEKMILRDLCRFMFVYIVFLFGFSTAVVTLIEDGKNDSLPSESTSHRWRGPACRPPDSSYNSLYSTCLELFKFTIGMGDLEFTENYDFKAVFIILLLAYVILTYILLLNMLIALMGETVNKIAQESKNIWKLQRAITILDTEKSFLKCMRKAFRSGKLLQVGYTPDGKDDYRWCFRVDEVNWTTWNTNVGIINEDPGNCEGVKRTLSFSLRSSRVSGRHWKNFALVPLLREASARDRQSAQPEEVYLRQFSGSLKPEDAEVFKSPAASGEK
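Fluo-8 calcium influx in TRPV1-expressing cells, kinetic read (ex 480/em 520 nm). Compound added and read 3 min for agonist activity, followed by capsaicin at EC20 final and 2 min further read for enhancement.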
ClpP mod – qHTS Assay for Activators of ClpP; AID 651965, 2013; purified B. subtilis ClpP, FRET peptide cleavage, 20 min; 1.9% of 340,000 active; Potency, µM (titrated, usually from 57.5 µM), without a hit: at the top dose activity change, negative = active; active = well fitted falling curve with a large enough effect; inconclusive = small, poorly fitted or top-dose-only effect; inactive = no such curve, though single readings can be large or run the other way; also: potency is read from the fitted curve at half-maximal effect; the source files actives as falling curves though it sought activators and does not explain the sign; nearly all actives have a fitted effect of over 65% in size; many hits overshoot -100%
Target sequence (P80244 whole entry, looked up): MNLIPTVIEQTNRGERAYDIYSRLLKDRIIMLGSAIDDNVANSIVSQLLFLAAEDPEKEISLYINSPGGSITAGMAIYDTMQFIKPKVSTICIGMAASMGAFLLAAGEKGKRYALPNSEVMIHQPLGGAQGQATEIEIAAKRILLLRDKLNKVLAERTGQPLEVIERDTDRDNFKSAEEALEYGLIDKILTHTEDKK
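FRET quenching reversal measured ClpP activation: 10 microg/mL B. subtilis ClpP at pH 8 with the FRET-FV decapeptide, read at 430 nm after 320 nm excitation. The 20-min minus 0-min signal was scaled between DMSO/no-enzyme wells and ADEP (5.8 microM final).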
The depositor's hits bear a star; ? = inconclusive; / = no result given; & = joins results of further samples; [ ] = dose if it differs, or a comment.

compound	Menin MLL FP FL	gsp agonist	CtBP-E1A blk	gsp antag	ClpP mod	TRPV1 potentiator	Sfp PPTase inh
COc1cc(/C=N/NC(=O)c2ccncc2)ccc1OC(C)=O	-0.3	-2%	1	6%	-0.4%	11	21%
CCC(=O)N(C)CCc1cc2c(c(OC)c1/C=N/NC(=O)c1ccc(Br)cc1)OCO2	5.0	14%	-10	6%	-0.1%	-9	2%
COc1ccccc1P(=O)(c1ccccc1)c1ccccc1	4.3	1%	/	5%	2.0%	-20	14%
CC1(C(=O)Nc2cccc3ccccc23)CC1(Br)Br (stereo not drawn)	-0.2	-23%	0	-1%	3.8%	5	-8%
CCCN1CNC(=S)N(c2ccccc2OC)C1	-1.9	-22%	-12	-12%	-2.1%	-1	13%
Cc1sc2ncn(CC(=O)NCc3ccco3)c(=O)c2c1-c1ccc(F)cc1	3.7	-2%[15.4 µM]	-1	6%	/	5	18µM*
Cc1ccc(-c2c(C(=O)N(C)Cc3ccccc3)oc(=O)c3ccccc23)cc1	3.5	-4%	5	-6%	-0.6%&1.6%	0	?
O=C1c2cccc3cccc(c23)C(=O)N1CCN1CCN(C(=S)Nc2ccc(F)cc2)CC1	2.3	/	/	/	/	-14	11%
COc1cc(/C=C2\C(=O)N(c3ccc(S(N)(=O)=O)cc3)N=C2C)ccc1OC(=O)c1ccco1	-1.0	6%	7	-3%	-2.4%	2	?
COC(=O)CSc1ccc(S(=O)(=O)N2CCC(C)CC2)cc1[N+](=O)[O-]	2.2	?	7	-19%	29%	-6	9%

Quoted at random: 3 entries already listed, in no set order.
compound	Menin MLL FP FL	gsp agonist	CtBP-E1A blk	gsp antag	ClpP mod	TRPV1 potentiator	Sfp PPTase inh
COc1cc(/C=C2\C(=O)N(c3ccc(S(N)(=O)=O)cc3)N=C2C)ccc1OC(=O)c1ccco1	-1.0	6%	7	-3%	-2.4%	2	?
COC(=O)CSc1ccc(S(=O)(=O)N2CCC(C)CC2)cc1[N+](=O)[O-]	2.2	?	7	-19%	29%	-6	9%
O=C1c2cccc3cccc(c23)C(=O)N1CCN1CCN(C(=S)Nc2ccc(F)cc2)CC1	2.3	/	/	/	/	-14	11%

Next entries.
compound	Menin MLL FP FL	gsp agonist	CtBP-E1A blk	gsp antag	ClpP mod	TRPV1 potentiator	Sfp PPTase inh
COC(=O)c1[nH]c2ccc(F)cc2c1NC(=O)CCN1CCN(C(=O)c2ccco2)CC1	2.6	/	/	/	/	-15	10%
CCCCCCN(C(=O)CCCCCN1C(=O)NC(c2ccc([N+](=O)[O-])cc2)C(C(=O)OCc2ccccc2)=C1C)C(C(=O)NCCCC)c1ccc(OCC(=O)OC)c(C(=O)OC)c1 (stereo not drawn)	1.7&-4.7	/	/	/	/	-7	6%&9%
COc1cccc(C(=O)Oc2cc(C)[nH]c(=O)c2[N+](=O)[O-])c1	-4.9	-9%	10	5%	/	?	18%
CNC(=O)c1[nH]cnc1C(=O)Nc1cccc(Cl)c1	/	/	-3	9%	-4.4%	-14	/
Clc1ccc(-c2nn3c(-c4cccc(Cl)c4)nnc3s2)cc1	2.0	/	/	/	/	-1	5%
COCC1CCCN(Cc2cn(-c3ccccc3)nc2-c2ccc3c(c2)OCO3)C1 (stereo not drawn)	0.1	-11%[15.4 µM]	-5	6%	/	-21	-3%
CCSC1=C(C#N)C(=O)n2c1cc1c2CCCC1	8.5	-6%	5	-10%	3.5%	-13	?
COc1ccc(CCN2C(=O)CC(C(C)c3ccccc3)C2=O)cc1OC (stereo not drawn)	-4.0	-1%[15.4 µM]	-4	-6%	/	-4	-11%
CC(=O)c1ccc(-c2cc([C@H]3[C@H]4C=CC[C@@H](C)[C@@H]4C(=O)N3Cc3ccccc3)ccc2F)cc1	1.5	/	-9	-17%	-3.1%	-24	-14%
Cc1ccc(Cl)cc1N1CCN(S(=O)(=O)c2cccc(S(=O)(=O)N3CCCC3)c2)CC1	-0.4	-22%	7	2%	-2.3%	-2	13%
Cc1ccc(NC(=O)c2ccc(OC(=O)C(C)Oc3ccc(Cl)cc3C)cc2)cc1 (stereo not drawn)	/	?	-10	2%	-4.3%	-16	4%
O=S(=O)(c1ccccc1)n1cc(-c2ccccn2)c(N2CCOCC2)n1	-0.8	3%	/	5%	-1.9%	2	7%
O=c1n(Cc2ccccc2F)c2ccccc2n1Cc1ccccc1F	6.5	3%	17	?	0.0%	-2	?
CN=C1SC(CC(=O)Nc2sc3c(c2C#N)CCCC3)C(=O)N1C (stereo not drawn)	-2.3	4%	3	4%	2.7%	-24	-7%
CC1=C(C(=O)OCCCBr)C(c2ccc3c(c2)OCO3)NC(=O)N1 (stereo not drawn)	-1.2	-18%[15.4 µM]	-12	-6%	?	-2	-3%
COC(=O)CC1(CC(N)=O)SCCS1	/	11%	-12	3%	?	/	/
CC(C)n1nc(C(=O)NNC(=O)c2ccc(OC(F)F)cc2)c2ccccc2c1=O	/	14%	/	6%	0.2%	7	/
CCN1C(=O)C(Cc2nc3ccccc3c(=O)n2C)c2ccccc21 (stereo not drawn)	3.0	-8%	-1	2%	2.1%	-6	6%
COc1ccc(NC(=O)CN(C)C(=O)c2cc(-c3ccncc3)nc3ccccc23)cc1	/	4%	-6	-9%	-25%	11	2%
Cc1ccc(S(=O)(=O)NCC[C@@]2(C)C3CCC2(C)C(=O)C3)cc1 (stereo partly drawn)	3.0	2%	5	8%	-0.3%	-5	-6%
Cc1n[nH]c(=O)c2c(NC(=O)CSc3ccc(Br)cc3)oc(C)c12	/	-25%	0	5%	-2.7%	5	/
Cc1ccc2cc(-c3noc(C4CCCO4)n3)c(=O)[nH]c2c1 (stereo not drawn)	3.3	-19%	-2	6%	4.8%	/	1%
CN(CCc1ccccc1)C(=O)c1cccc(NC(=O)Cc2cccc([N+](=O)[O-])c2)c1	/	/	-4	-22%	0.9%	/	/
CCCCN1C(=O)C(=O)N(CC(=O)N2CCc3ccccc32)C1=O	/	2%	0	10%	1.1%	23	/
COCCNC(=O)/C(C#N)=C1\N=C(N)c2ccccc21	22	4%[15.4 µM]	-1	-8%	-3.5%	-5	17%
O=C(NNC(=O)C1CC1c1ccccc1)Nc1ccccc1 (stereo not drawn)	3.4	?	6	6%	28µM*	-1	-1%
Cc1ccc(S(=O)(=O)c2cc3c(=O)n4ccccc4nc3n(C)c2=N)cc1C	/	6%	/	?	?	9	-3%
O=C(CC1SC(N2CCCCC2)=NC1=O)Nc1cccc(C(=O)NCc2ccc(F)cc2)c1 (stereo not drawn)	/	1%	-17	3%	-2.8%	1	/
CC(C)c1cc(C(=O)N2CCCC(N3CCN(c4ccc(F)cc4)CC3)C2)no1 (stereo not drawn)	/	-5%	5	-16%	-1.5%	1	12%
Cc1noc(C)c1COC(=O)C1CC(O)CN1S(=O)(=O)c1ccc(Cl)cc1 (stereo not drawn)	-7.0	1%	-2	-3%	1.1%	-11	12%
Cc1c(-c2cc(Br)ccc2O)nc2cc3c(cc2c1C)OCO3	?	26%	-6	-2%	-0.9%	-11	8%
O=C(COC(=O)CN1C(=O)C2CCCCC2C1=O)Nc1ccc(S(=O)(=O)N2CCOCC2)cc1 (stereo not drawn)	0.0	21%	-9	5%	2.0%	7	22%
CCOC(=O)c1cccc(NC(=O)CCc2nnc3ccc(N4CCN(C)CC4)nn23)c1	0.2	29%	4	12%	-2.8%	0	13%
Cc1occc1C(=O)NC1CCCCCC1	-0.6	-5%	-4	6%	1.0%	5	10%
CCOc1ccc(C(CC(=O)O)NC(=O)C2c3ccccc3Oc3ccccc32)cc1 (stereo not drawn)	1.9	-13%	/	11%	0.3%	-4	41%[activator]
COc1ccc(S(=O)(=O)N2CCC(NC(=O)N3CCOCC3)CC2)cc1	3.8	33%	7	8%	/	2	10%
CCCCC(=O)Nc1ccc2c(c1)nc(CCN1CCN(C)CC1)n2C	1.0	1%	3	3%	/	-9	1%
Cc1cc(Cl)ccc1OCC(O)CNCCc1ccc(S(N)(=O)=O)cc1 (stereo not drawn)	-1.4	4%	/	-7%	-2.7%	0	0%
O=C(Nc1nc(COc2ccccc2)cs1)C12CC3CC(CC(C3)C1)C2	1.2	-31%[inhibitor]	41	-1%	0.2%	-7	28%
CC1Cc2ccccc2N1c1ncnc2c1nnn2Cc1ccccc1 (stereo not drawn)	1.4	-21%	10	8%	-0.6%	2	28µM*
O=C(COc1ccccc1Cl)NCCCN1CCOCC1	3.0	8%	6	-12%	-0.5%	7	24%
O=C(Nc1cccc(C(=O)O)c1)Nc1ccc2c(c1)OCO2	-0.7	-11%[15.4 µM]	-5	3%	-0.7%	-3	-2%
CC1(C(=O)O)Sc2[nH]c(=O)sc2C2c3ccccc3OC(=O)C21 (stereo not drawn)	?	-1%	-2	-8%	-2.9%	3	?
CC(C)(C)c1ccc(Cc2n[nH]c(=S)[nH]c2=O)cc1	0.3	-35%[inhibitor]	-7	0%	/	-5	18%
COc1ccc(C(=O)NCCOc2cccc(Oc3ccccc3)c2)cc1OC	/	10%	-8	-21%	-4.4%	3	/
CCn1c(C)[n+](CCCS(=O)(=O)[O-])c2cc(Cl)c(Cl)cc21	4.6	21%	0	34%[activator]	1.5%	-3	-5%
O=C(O)c1cccc(N2C(=O)/C(=C/c3ccc(SCc4ccc(Cl)cc4)o3)SC2=S)c1	?	5%	-4	-34%	-7.8%	4	40µM*
C=CCn1c(CSc2nnc(-c3ccccc3)n2C)n[nH]c1=S	3.3	2%[15.4 µM]	0	-9%	/	-4	?
